StopGo reporter = lowers the luciferase signal of an FMDV 2A StopGo reporter; human cells with a luciferase reporter of 2A StopGo recoding; control for the full effect not named in the record; Potency, µM (top dose mostly 57.9 µM), inactives show at the top dose signal change, negative = less light; 1.2% of 410,000 active; active = well fitted falling curve with a large enough effect; inconclusive = small, poorly fitted or top-dose-only effect; inactive = no such curve, though single readings can be large or run the other way; tested in HEK293T cells; also: % is scaled to controls: 0 for no effect and ±100 for the full control effect; nearly all actives have a fitted effect of over 45% in size; luciferase light after 4 h
SARS PLP yeast = SARS-CoV PLP inhibition in yeast; Potency, µM (doses to about 32.9 µM), for the others: at the top dose activity, positive = growth rescue; AID 485353; S. cerevisiae expressing SARS-CoV PLpro, growth rescue; control for the full effect not named in the record; 0.19% of 330,000 active; active means well fitted rising curve with a large enough effect; inconclusive means small, poorly fitted or top-dose-only effect; inactive means no such curve, though single readings can be large or run the other way; also: 0% is about no effect; nearly all actives have a fitted effect of over 55% in size; growth read by luminescence after 48 h
RE007 growth inh = less growth of the S. pombe RE007 Vpr strain; AID 651644; S. pombe RE007 Vpr strain, BacTiter-Glo ATP luminescence, 24 h; control for the full effect not named in the record; 0.21% of 360,000 active; Potency, µM (top dose mostly 92.2 µM), inactives show top-dose activity change, negative = less growth; active = well fitted falling curve with a large enough effect; inconclusive = small, poorly fitted or top-dose-only effect; inactive = no such curve, though single readings can be large or run the other way;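 also: % is scaled to controls: 0 for no effect and ±100 for the full control effect; nearly all actives have a fitted effect of over 50% in size; the assay follows cell death caused by Vpr and the record does not say whether a fall means rescue or toxicity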
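Fission yeast strain RE007, carrying one chromosomally integrated HIV-1 vpr copy, was seeded at OD 0.01 in PMG+AL medium with 23 nL pinned compound. After 24 h at 30 °C and 99% humidity, viability was read by BacTiter-Glo luminescence.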
Cruzain inh Det = inhibitors of Trypanosoma cruzi cruzain with detergent. P25779. purified cruzain, Z-FR-AMC fluorescence, 0.01% Triton. Potency, µM, without a hit: max response, negative = inhibition, actives largely listed as inhibitors. 0.43% of 200,000 active. AID 1478;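 also: plate controls were neutral wells for no effect and buffer without enzyme for full effect; nearly all actives have a fitted effect of over 40% in size; top concentration of the series not given in the record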
Target sequence (P25779 123-467 limits assumed): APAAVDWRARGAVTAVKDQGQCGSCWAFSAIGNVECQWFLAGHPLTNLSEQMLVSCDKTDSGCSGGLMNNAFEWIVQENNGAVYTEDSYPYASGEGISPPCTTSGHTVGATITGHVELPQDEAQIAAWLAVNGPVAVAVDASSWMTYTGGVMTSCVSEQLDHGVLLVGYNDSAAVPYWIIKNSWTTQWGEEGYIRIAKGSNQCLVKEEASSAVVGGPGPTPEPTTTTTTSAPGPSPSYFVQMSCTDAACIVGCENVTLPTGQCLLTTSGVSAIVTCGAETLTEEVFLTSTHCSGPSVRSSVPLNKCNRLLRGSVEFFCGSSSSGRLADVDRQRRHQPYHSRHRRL
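Enzyme 1.5 nM, Z-FR-AMC 2 uM, NaOAc 100 mM pH 5.5, DTT 5 mM, Triton X-100 0.01%; 15 min RT compound preincubation; kinetic ex360/em450, 60 s delta.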
MARV entry inh = inhibitors of Marburg virus binding or cell entry; Marburg virus pseudotyped entry inhibition, cell reporter; control for the full effect not named in the record; about a third of the inactives were read at about 46 µM; Potency, µM (top dose mostly 37.8 µM), inactives show at the highest dose activity change, negative = inhibition, usual class: inhibitors; 1.8% of 300,000 active; AID 540276; active = well fitted inhibition curve with a large enough effect; inconclusive = small, poorly fitted or top-dose-only effect, or effect the other way; inactive = flat fitted curve, though single readings scatter; tested in HEK293 cells; about a fifth of its hits are not listed in these tables; also: % is scaled to controls: 0 for no effect and ±100 for the full control effect; luciferase read-out
NS1 function inh = inhibitors of influenza NS1 protein function. S. cerevisiae slowed by influenza A NS1, growth recovery by OD600. Potency, µM (series often up to 46.1 µM), for the others: at the highest dose activity, positive = more growth. 0.4% of 270,000 active. AID 2326; active means well fitted rising curve with a large enough effect; inconclusive means small, poorly fitted or top-dose-only effect; inactive means no such curve, though single readings can be large or run the other way; also: nearly all actives have a fitted effect of over 50% in size
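OD600 was taken as the measure of yeast growth restored by compound in an NS1-expressing S. cerevisiae strain. Cells had been washed out of glucose medium and diluted 1:100 into galactose -URA medium, pH 6.0.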
Cruzain inh noDet = inhibitors of Trypanosoma cruzi cruzain without detergent. P25779. purified cruzain, Z-FR-AMC fluorescence, no detergent. 2.3% of 200,000 active. AID 1476. Potency, µM, without a hit: max response, negative = inhibition, hits mostly inhibitors;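 also: plate controls were enzyme without inhibitor for no effect and buffer without enzyme for full effect; nearly all actives have a fitted effect of over 40% in size; top concentration of the series not given in the record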
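Purified cruzain at 1.5 nM, pre-incubated 15 min with compound at room temperature in 100 mM sodium acetate pH 5.5, 5 mM DTT, 0.00005% Triton X-100. Reaction started with 2 uM Z-FR-AMC; AMC fluorescence increase over 60 s gives rate.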
Lassa entry inh = inhibitors of Lassa virus binding or cell entry. Potency, µM (top dose mostly 37.9 µM), inactives show at the top dose activity change, negative = inhibition, hits mostly inhibitors. Lassa virus pseudotype entry inhibition, cell reporter; control for the full effect not named in the record. 1.2% of 300,000 active; active means well fitted inhibition curve with a large enough effect; inconclusive means small, poorly fitted or top-dose-only effect, or effect the other way; inactive means flat fitted curve, though single readings scatter; tested in HEK293 cells; also: % is scaled to controls: 0 for no effect and ±100 for the full control effect; nearly all actives have a fitted effect of over 50% in size; luciferase read-out
Numbers without * were called inactive; u = inconclusive; x = no result given; & = joins results of further samples; [ ] = remark or other dose. Unless noted, calls follow the shape of the dose curve; as a rule, active = well fitted curve in the direction sought with a large enough effect; inconclusive = small, poorly fitted or top-dose-only effect, or another doubt; inactive = no such curve, though single readings can be large; an effect the other way counts as inactive or inconclusive. Potency is read from the fitted curve at half-maximal effect.

SMILES | StopGo reporter | SARS PLP yeast | RE007 growth inh | Cruzain inh Det | MARV entry inh | NS1 function inh | Cruzain inh noDet | Lassa entry inh
COc1cccc(CN(c2ccccc2C(=O)O)S(=O)(=O)c2ccc(C)cc2)c1 | -15% | x | 6% | x | 8% | x | x | -2%[46.1 µM]
O=C(CN1C(=O)C2C3C=CC(C3)C2C1=O)NC1CCCc2ccccc21 (stereo not given) | 12% | 8% | 6% | 1.3% | 20% | 4% | 4% | -7%
COC(=O)[C@@H]1[C@@H](C#N)C2(c3ccccc3-c3ccccc32)N(c2ccc(Cl)cc2)N1C#N | 25µM* | -80% | 15% | -6.1% | u | -16% | -2% | u
CC(C)Cn1cc(C(=O)N2CCC3(CC2)OCCO3)c2c3ccccc3n(C)c2c1=O | 31%[activator] | -3% | 4% | -3.1% | u | -7% | u | -4%
Nc1cc(Cl)c2nonc2c1[N+](=O)[O-] | 8.9µM* | 6% | -18% | -3.3% | u | -12% | 2% | u
N#Cc1ccccc1COc1cccc2c1CCCC2O (stereo not given) | -18% | 0% | 5% | x | 22%[46.1 µM] | -4% | x | u
CN(C(=O)c1ccc(NC(=O)c2ccco2)cc1)c1ccccc1 | 0% | -10% | -28% | x | x | -2% | x | x
Cc1ccc(NC(=O)CN(C)C(=O)COC(=O)COc2ccc(C#N)cc2)cc1 | -17% | 7% | 1% | x | u | x | x | 7%[46.1 µM]
CC1(C)CC(=O)C=C(Nc2ccccc2)C1 | 1% | 1% | -5% | x | -1% | 1% | x | 14%
COC(=O)C1=C(C)OC(N)=C(C#N)C1c1c(C)nn(C)c1C (stereo not given) | -19% | 10% | -3% | -2.9% | -5% | 2.2µM* | -3% | 6%
Cc1ccc(NC(=O)CSc2nnc(NC(=O)c3ccco3)s2)cc1 | 71%[activator] | 0% | 3% | x | 0% | 5% | x | 3%
C=CCN=Cc1sc2ccc(OCC)cc2c1O | x | -15% | x | -4.9% | x | -3% | -16% | x
Cc1cc(NC(=O)CN2C(=O)[C@@H]3[C@H](C2=O)[C@@H]2C[C@H]3C(Br)C2Br)no1 (stereo not given in full) | -10% | 1% | -12% | x | 10%[46.1 µM] | 1% | x | 21%[46.1 µM]
CCC(C)C(=O)Nc1ccc(OC)cc1OC (stereo not given) | 23% | 7% | 0% | 7.0% | 19% | -6% | -6% | 0%
COC(=O)c1c(-c2ccc(Br)cc2)noc1N | -27% | -13% | -10% | -2.7% | -17% | -46% | 9% | u
CC(C)COc1cccc(C(=O)NC(=S)NCc2cccnc2)c1 | u | u | -19% | -10% | -31% | 3% | 2% | u
COc1ccc(CCC(C)Nc2cccc(C)c2)cc1 (stereo not given) | -10% | -21% | 8% | 0.0% | u | 6% | -2% | -4%
COc1ccc(S(=O)(=O)N2CCOCC2)cc1NS(=O)(=O)c1ccc(F)c(F)c1 | -1% | 2% | 20% | x | u | x | x | -1%
Cc1ccc(NC(=O)Cn2ccsc2=N)c([N+](=O)[O-])c1 | -1% | 1% | 1% | x | -11%[14.2 µM] | -2% | x | 16%
O=C(COc1ccccc1Cl)N1CCCC(N2CCN(c3ccc(F)cc3)CC2)C1 (stereo not given) | u | -3% | 6% | x | x | -50% | x | x
Cc1ccc(N(C)S(=O)(=O)c2nnc(NC(=O)c3ccco3)s2)cc1 | -5%&5% | 1% | -12% | -1.0% | u | -8% | -14% | u
CC1(C)CC(=O)C2=C(C1)N(N1CCOCC1)C(N)=C(C#N)C2c1cccnc1 (stereo not given) | 4% | -2% | -18% | 0.2% | 4% | -3% | -5% | 16%
Cc1ccc(C)c(Cn2c(C(=O)O)c(CNCc3cccs3)c3ccccc32)c1 | 12% | x | x | -6.9% | u | x | u | x
CCOC(=O)N1CCN(C(=S)Nc2ccccc2C)CC1 | -11% | -14% | 16% | -1.2% | 16% | 9% | -2% | 9%
CC(C)n1cnc2c(N(C)c3ccccc3)nc(N(CCN(C)C)Cc3ccccc3)nc21 | u | 0% | 21% | x | x | -15% | x | x
Cn1c(=O)c2c(-c3ccccc3Br)n(C(C)(C)C)cc2n(C)c1=O | u | x | x | 3.1% | u | x | -7% | u
CCCC(CCC)=NNC(=O)c1ccccc1F | 40%[activator] | 0% | -4% | x | u | x | x | u
O=C(NC1CCN(C(=O)c2cccs2)CC1)c1ccccc1 | -14% | 0% | 0% | x | x | 0% | x | x
Cc1ccccc1C(=O)NNC(=O)c1ccc2nc[nH]c2c1 | 22% | -8% | -18% | x | u | x | x | 11%
CC(C)N=C1NN=C(c2cccs2)CS1 | 17% | -2% | -3% | x | -11%[46.1 µM] | x | x | -16%
COc1cccc(CNC(=O)Cc2ccc(-c3ccccc3)cc2)c1 | -13% | -9% | -7% | x | u | 7% | x | u
CSc1nncn1/N=C/c1ccc2c(c1)OCO2 | -3% | -9% | -13% | 2.9% | 0% | 0% | 0% | 3%
COc1ccc2[nH]c(=O)c(CN(Cc3ccc4c(c3)OCO4)C(C)=O)cc2c1 | -23% | -1% | 0% | 2.1% | -2% | -4% | -4% | -4%
CN1CCN(c2ccc(NC(=O)c3ccc(-c4ccc(Br)cc4)o3)cc2)CC1 | -18% | -1% | -26% | x | u | 5% | x | u
C/C(=N\O)C(=O)NCCN1CCCCC1 | x | -1% | -3% | 6.9% | -3% | 0% | 1% | -27%
CC1Cc2ccccc2N1C(=O)COc1nc2ccccc2nc1N1CCOCC1 (stereo not given) | 0% | -2% | 0% | -4.4% | 18% | -10% | u | 13%
CC(CN1C(C)CCCC1C)OC(=O)c1cccc(F)c1 (stereo not given) | -1% | 13% | -1% | x | x | 4% | x | x
COc1ccc(OC)c(S(=O)(=O)NCC(c2ccc(N(C)C)cc2)N2CCOCC2)c1 (stereo not given) | 6% | x | x | -1.0% | x | x | 0% | -7%[46.1 µM]
Cc1onc(-c2ccccc2Cl)c1C(=O)Nc1ccc(N2CCOCC2)cc1 | -16% | -6% | 0% | 2.7% | -12% | 13% | -4% | u
Cc1cccc(C)c1NC(=O)N1CC=CCC1 | -23% | 1% | 6% | x | x | 1% | x | x
COc1ccc(-c2csc(C3=C(O)CN(Cc4ccc(S(N)(=O)=O)cc4)C3=N)n2)cc1OC | 3% | 4% | 0% | 1.4% | 2%&2% | 14% | 0% | 2%
NC(=O)c1ccc(NC(=O)C2COc3ccccc3O2)cc1 (stereo not given) | 15% | 7% | -17% | x | x | u | x | x
CCOC(=O)C1CCN(C(=O)C2c3ccccc3C(=O)N(C)C2c2ccc(OC)cc2)CC1 (stereo not given) | -11% | 1% | -5% | 4.2% | -10%&-10% | -15% | 9% | -13%
Cc1cccc(OCC(=O)Nc2nnc(S(=O)(=O)N3CCCCCC3)s2)c1 | 0%&-19% | 2% | -5% | -1.0% | x | 4% | 13% | 3%[46.1 µM]
Cc1cccc(N2CCN(C(=O)c3ccc4nc(N5CCC(C)CC5)sc4c3)CC2)c1C | -24% | x | x | -5.3% | u | x | -5% | u
Cc1ccc2c(c1)N(C(=O)NCc1ccccc1)CCO2 | -10% | x | x | -1.6% | x | x | 0% | 9%[46.1 µM]
O=C(NCC1CCCO1)c1nnc(Cc2ccc(F)cc2)o1 (stereo not given) | -7% | -6% | -15% | -0.8% | -5% | -15% | -2% | 6%
O=S(=O)(NCc1cn2ccccc2n1)c1ccccc1F | 18% | 2% | -4% | x | x | -3% | x | x
O=C(O)CC1(CC(=O)N2CCOCC2)CCCC1 | 9% | 1% | -14% | x | -11%[46.1 µM] | -7% | x | 29%
CCOC(=O)N1CCN(C(=O)c2cn(CCOC)c(=O)c3c2c2ccccc2n3C)CC1 | -11% | -3% | 11% | -1.3% | 16% | -4% | u | -6%
COc1ccc(OCCC(=O)OCC(=O)Nc2cccc(S(=O)(=O)N3CCOCC3)c2)cc1 | -2% | -1% | -13% | x | u | x | x | 3%
CCc1cccc(NC(=O)CSC2=Nc3ccccc3N=C(c3ccc(F)cc3)C2)c1 | -23% | x | x | -4.1% | x | x | u | 0%[46.1 µM]
Cc1ccc(C(=O)CC(C(=O)O)c2cn(CCC#N)c3ccccc23)cc1 (stereo not given) | -15% | 6% | 0% | -1.8% | x | u | -5% | x
Cc1[nH]n(-c2ccccc2)c(=O)c1/C=C1/C=c2ccccc2=N1 | 72%[activator] | -5% | 10% | x | u | x | x | 6%
Cc1cc(=O)oc2c3c(cc(OCC(=O)NCC(=O)N[C@H](C(=O)O)C(C)C)c12)OC(C)(C)CC3 | -1% | 2% | -8% | x | x | 2% | x | x
CNC(=O)Nc1ccc2nc(C)oc2c1 | 12% | 0% | -18% | x | x | -1% | x | x
CC1CCN(c2ccc(C(=O)O)cc2NS(=O)(=O)c2ccc(Br)cc2)CC1 | 13% | u | 19% | -13% | -18% | -21% | -9% | 11%
N#Cc1ccc(C23CC4(C2)[C@H](CN(CC2CCCCC2)[C@@H]4c2ccccc2)C3c2ccc(C(F)(F)F)cc2)cc1 (stereo not given in full) | x | -5% | x | -2.1% | x | 13% | u | x
Cc1cc(C)c2c(=O)cc(C(=O)NCc3ccc(S(N)(=O)=O)cc3)oc2c1 | -6% | x | x | 4.3% | 17%[46.1 µM] | x | 0% | 25%[46.1 µM]

Whole records, looked up by structure:
Record of Cc1ccc(C(=O)CC(C(=O)O)c2cn(CCC#N)c3ccccc23)cc1 (stereo not given) = StopGo reporter = -15%; SARS PLP yeast = 6%; RE007 growth inh = 0%; Cruzain inh Det = -1.8%; MARV entry inh = x; NS1 function inh = u; Cruzain inh noDet = -5%; Lassa entry inh = x
Record of Cc1[nH]n(-c2ccccc2)c(=O)c1/C=C1/C=c2ccccc2=N1 = StopGo reporter = 72%[activator]; SARS PLP yeast = -5%; RE007 growth inh = 10%; Cruzain inh Det = x; MARV entry inh = u; NS1 function inh = x; Cruzain inh noDet = x; Lassa entry inh = 6%

Bioassay records: PubChem, National Center for Advancing Translational Sciences (NCATS)
